Screens from PubChem BioAssay.
ClpP mod – qHTS Assay for Activators of ClpP | purified B. subtilis ClpP, FRET peptide cleavage, 20 min | 1.9% of 340,000 active | ATP-dependent Clp protease proteolytic subunit (Bacillus subtilis (strain 168)), P80244 | Potency, µM (doses to about 57.5 µM), without a hit: top-dose activity change, negative = active; active = well fitted falling curve with a large enough effect; inconclusive = small, poorly fitted or top-dose-only effect; inactive = no such curve, though single readings can be large or run the other way; further: potency means the concentration at half of the fitted maximal effect; the source files actives as falling curves though it sought activators and does not explain the sign; nearly all actives have a fitted effect of over 65% in size; many hits overshoot -100%
Target sequence (P80244 whole entry, looked up): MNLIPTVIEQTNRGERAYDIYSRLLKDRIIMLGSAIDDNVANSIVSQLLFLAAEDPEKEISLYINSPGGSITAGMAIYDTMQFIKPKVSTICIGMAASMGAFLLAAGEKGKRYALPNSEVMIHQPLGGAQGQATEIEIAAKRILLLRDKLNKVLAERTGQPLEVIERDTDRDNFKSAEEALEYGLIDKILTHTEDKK
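ClpP 10 microg/mL final, pH 8 Tris/KCl buffer with BSA, glycerol, Tween-20; compound pinned in; FRET-FV substrate; RT 20 min; Ex320/Em430; ΔFRET vs ADEP 5.8 microM, DMSO, no enzyme.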
TRPML1 inh – qHTS for Inhibitors of the Human Mucolipin Transient Receptor Potential 1 (TRPML1). TRPML1-inducible cells, Ca2+ dye fluorescence, FDSS; stronger effect = lower value; inhibition of EC80 agonist-evoked calcium signal. 0.02% of 390,000 active. AID 624415, 2012. activity change, negative = inhibition, % (no concentration beside the values); in the data active means activity change below about -50%; inconclusive means about -30% to -50%; inactive means above about -30%;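 further: stimulus is agonist 54-4 at its EC80 concentration; on the % scale 0 is the no-effect control and ±100 the full control effect; compound concentration not given in the record; the text of the record puts the active cut at -80%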
Target sequence (Q9GZU1 whole entry, looked up): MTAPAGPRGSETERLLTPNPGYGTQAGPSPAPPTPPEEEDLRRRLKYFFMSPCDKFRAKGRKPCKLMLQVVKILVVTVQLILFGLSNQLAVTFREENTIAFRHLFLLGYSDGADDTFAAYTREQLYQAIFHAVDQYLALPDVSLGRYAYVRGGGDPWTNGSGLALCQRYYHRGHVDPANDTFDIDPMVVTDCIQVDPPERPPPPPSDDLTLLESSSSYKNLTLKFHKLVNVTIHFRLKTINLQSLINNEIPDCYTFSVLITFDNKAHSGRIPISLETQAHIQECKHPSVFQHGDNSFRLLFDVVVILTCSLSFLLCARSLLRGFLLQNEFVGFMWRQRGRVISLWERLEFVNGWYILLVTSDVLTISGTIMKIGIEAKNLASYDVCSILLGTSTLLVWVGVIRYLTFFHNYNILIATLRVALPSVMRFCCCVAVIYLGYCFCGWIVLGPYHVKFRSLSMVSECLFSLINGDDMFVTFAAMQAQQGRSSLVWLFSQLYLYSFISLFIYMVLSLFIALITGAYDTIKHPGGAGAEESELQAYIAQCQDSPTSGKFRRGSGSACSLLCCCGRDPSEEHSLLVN
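TRPML1-DL cells, Tet-induced overnight (~16 h, 37 °C) at 1,500 cells/well, were loaded with Ca8 no-wash dye plus quencher for 45-90 min at room temperature. Compounds were pinned during FDSS kinetic reading; agonist 54-4 at EC80 (4 uM final) then added.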
Active calls of the source: *; u = inconclusive. The list is partial; count on the stated rates, not on these rows.

mol	ClpP mod	TRPML1 inh
CCOc1ccc(NC(=O)Cn2c(=O)n(CC(=O)NCCc3ccccc3)c(=O)c3sccc32)cc1	0.3%	18.8
Cc1ccc(NC(=O)C2CCCN(S(=O)(=O)c3cccc4cccnc34)C2)c(Br)c1 (stereo not drawn)	-0.5%	-2.8
CC1CCC(C(=O)NC(C(=O)OCC(=O)c2ccc(Br)cc2)C(C)C)CC1 (stereo not drawn)	-1.8%	23.2
Cc1ccc(-c2nc(-c3cc4cccc(OCc5cccc(F)c5)c4oc3=O)no2)cc1	-2.9%	-6.8
COc1ccc(C(=O)Nc2ccc(-n3nncc3-c3ccc(OC)c(OC)c3)cc2)cc1	-6.8%	-6.2
CCOc1ccc(C(c2c(O)cc(C)n(CCOC)c2=O)N2CCC(C)CC2)cc1 (stereo not drawn)	1.9%	-14.7
CC(C)c1nn2c(=O)cc(COC(=O)c3ccc(NC(=O)c4ccccc4Cl)cc3)nc2s1	-19.0%	44.4
Cc1cccc(CN2CCN(C3CN(Cc4cn(Cc5ccccc5F)nn4)S(=O)(=O)C3)CC2)c1 (stereo not drawn)	-1.4%	-6.6
CCOC(=O)c1ccc(N2C(=O)c3n[nH]c(-c4cccs4)c3C2c2ccc(C(C)(C)C)cc2)cc1 (stereo not drawn)	-1.1%	26.5
CCOc1ccc(C(c2c(O)cc(C)n(Cc3ccco3)c2=O)N2CCN(C)CC2)cc1 (stereo not drawn)	-4.1%	3.8
Cc1ccc(-c2noc(-c3ccc(N4CCC(C)CC4)c([N+](=O)[O-])c3)n2)cc1	1.5%	-3.0
CCCC(C(=O)Nc1cc(C)c(Cl)cc1OC)N1Cc2ccccc2C1=O (stereo not drawn)	-0.7%	-0.8
COc1ccc(-c2nc3scc(CCNS(=O)(=O)c4cccs4)n3n2)cc1	-1.0%	-5.0
Cc1cccc(CNC(=O)C2CCCN(S(=O)(=O)c3cn(C)cn3)C2)c1 (stereo not drawn)	-1.3%	29.3
CC(=O)Nc1ccc(NC(=O)c2csnn2)cc1	-0.1%	0.5
COc1ccc(-n2ncc(C(=O)N3CCc4ccccc4C3)c2C2CCN(C(=O)OC(C)(C)C)CC2)cc1	0.4%	14.0
O=C(CCCCn1c(=O)c2ccccc2n(Cc2cccc(Cl)c2)c1=O)NCc1ccc2c(c1)OCO2	3.6%	4.1
Cc1ccc(-c2onc(C)c2C)cc1S(=O)(=O)NC1CCC(C)CC1 (stereo not drawn)	0.9%	81.2
CCN(CC)CCN(C(=O)c1ccco1)c1nc2ccc(F)cc2s1	1.0%	-12.9
Cc1cc(C(F)(F)F)n2nc(-c3ccc(Br)cc3)cc2n1	2.3%	-4.3
COc1ccccc1CCNC(=O)C1(c2cccs2)CCOCC1	0.1%	-8.8
CCOC(=O)C1CCN(C(=O)C2CCN(S(=O)(=O)c3c(C)noc3/C=C/c3ccc(C)cc3)CC2)CC1	-24.9%	-11.8
CCOc1ccccc1NC(=O)CSc1ncc(S(=O)(=O)c2ccc(C)c(C)c2)c(N)n1	-1.9%	-1.0
CCn1c(=O)cc(SCC(=O)NCc2ccccc2OC)c2ccccc21	-1.8%	-8.2
CC(=O)c1ccc(NC(=O)CSc2nnc(NC(=O)NC3CCCCC3)s2)cc1	1.7%	-5.7
CN1C(=O)Cc2cc(S(=O)(=O)CCC(=O)Nc3ccc(OC(F)(F)F)cc3)ccc21	-1.7%	8.5
CCOC(=O)c1cnc2c(ccc3ccccc32)c1Nc1ccc(OCC)cc1	-0.5%	-17.5
Cc1c(Cl)ccc2sc(N3CCN(C(=O)C(C)C)CC3)nc12	-6.5%	59.0
Cc1nnc(SCC(=O)NCc2ccccc2Cl)c2nn(-c3ccccc3)c(C)c12	-2.4%	9.7
Cc1ccc(NC(=O)CSc2ncn[nH]2)cc1C	1.6%	-13.8
CCOC(=O)c1cnc2ccc(Cl)cc2c1Nc1ccc(N2CCOCC2)cc1	-1.9%	4.1
CN1C(=O)c2ccccc2Sc2ccc(NC(=O)N3CCN(c4ccccc4F)CC3)cc21	0.2%	27.0
Oc1cccc(-c2nc(-c3cccs3)c(-c3cccs3)[nH]2)c1	25.1µM*	18.7
COC(=O)CC1Oc2ccc(C)cc2-n2cc(-c3ccc(F)cc3)nc21 (stereo not drawn)	2.3%	-2.5
Cc1ccc(Cl)cc1N1CCN(C(=O)COc2cc(=O)n(C)c3ccccc23)CC1	-7.8%	-1.1
Cc1ccc(Cc2c(-c3ccc(Cl)cc3)nc3c(C)cc(Br)cn23)cc1	-2.7%	19.3
CCOc1ccccc1NC(=O)c1nc2nc(C)cc(C(F)F)n2n1	1.4%	9.1
COc1ccc(NC(=O)C2CCCN2S(=O)(=O)c2ccc3c(c2)CCCC(=O)N3)cc1Cl (stereo not drawn)	-0.5%	-13.5
COc1ccc(Cl)cc1NC(=O)N1CCN(Cc2cc(=O)n3nc(-c4ccccc4)sc3n2)CC1	-9.1%	1.6
COc1ccc(N2CCN(c3nc4ccccc4n4c(C)nnc34)CC2)cc1	-2.2%	14.4
Cc1csc2nc(COC(=O)CNC(=O)c3ccccc3Cl)cc(=O)n12	u	-6.9
CCOc1ccccc1NC(=O)C1CCN(S(=O)(=O)c2ccc3[nH]c(=O)ccc3c2)CC1	-23.4%	-16.1
CCCCC(=O)OC1=C(C(=O)c2ccccc2)N(CCC)S(=O)(=O)c2ccccc21	-1.8%	22.8
Cc1ccc(CNC(=O)c2cc3c(=O)n(Cc4ccco4)ccc3nc2C)cc1	4.4%	11.6
O=C(NCCN1CCN(c2cccc(Cl)c2)CC1)Nc1ccccc1C(F)(F)F	-1.4%	7.2
OC(c1ccc(F)c(F)c1)c1nc(-c2ccccc2)cs1 (stereo not drawn)	-2.4%	3.1
COc1ccc(Cn2c(C(=O)O)c(CNC3CCC(C)CC3)c3ccc(C)cc32)cc1 (stereo not drawn)	-3.0%	5.0
Cc1cc(Cl)ccc1OCC(=O)N(Cc1ccc(N(C)C)cc1)C1CCS(=O)(=O)C1 (stereo not drawn)	-5.4%	7.1
Cc1nnc(NCc2ccc(Cl)cc2)c2c1nnn2Cc1ccc(F)cc1	-1.0%	15.8
CCN(CC)S(=O)(=O)c1ccc2c(c1)nc(CN(C)C(=O)Nc1ccc(F)cc1)n2C	1.9%	u
CCOC(=O)C1=CCC(c2ccccc2)N(S(=O)(=O)c2ccccc2[N+](=O)[O-])C1 (stereo not drawn)	-0.9%	2.8
CCOc1ccc(CNC(=O)CN2N=C(c3ccccc3)CCC2=O)cc1OC	-1.6%	9.9
Cc1cccc(-c2noc(CN(C3CCCCC3)S(=O)(=O)c3ccc(F)cc3)n2)c1	-4.8%	17.5
CCCCCn1c(CCCNC(=O)c2ccccc2OC)nc2ccccc21	0.3%	23.9
COc1cc2c(cc1OC)C(COc1cccc(C(F)(F)F)c1)N(C(=O)c1ccc(S(=O)(=O)N3CCCC3)cc1)CC2 (stereo not drawn)	-1.1%	6.5
COc1ccc2cc(CNc3ccc(C)cc3)c(=O)n(CC(=O)Nc3ccc(C)cc3Cl)c2c1	-6.8%	13.9

The results go on:
mol	ClpP mod	TRPML1 inh
CC(=O)NCCNc1nc2c(-c3ccc(C)cc3)nnn2c2ccccc12	-15.7%	-1.0
COc1cccc(N2CCN(C(=O)Cn3nc(C)n4c(cc5c(OC)cccc54)c3=O)CC2)c1	-0.8%	-12.8
Cc1ccc(S(=O)(=O)Nc2ccc3c(c2)C(=O)N([C@@H](C)CO)C[C@@H](C)[C@@H](CN(C)C(=O)NC(C)C)OCCCC[C@H](C)O3)cc1	-0.8%	17.5
CC1CCN(C(=O)CSc2nc(-c3ccccc3)no2)CC1	-2.1%	u
Cc1cccc(C(=O)NCc2nnc(SCC(=O)Nc3ccccc3F)n2-c2ccccc2)c1	-1.2%	10.4
Cc1ccc(-n2ncc3c(NCCC4=CCCCC4)ncnc32)cc1C	u	-7.0
CCOc1ccc(C(=O)N(Cc2sccc2C)C2CCS(=O)(=O)C2)cc1 (stereo not drawn)	-2.7%	29.7
CCCCOc1ccc(C(=O)Nc2cc(-c3ccc(C)cc3)no2)cc1	-1.0%	14.5
CCOc1ccccc1NC(=O)CSc1ccc2nc(-c3ccccc3)cn2n1	4.9%	-7.4
CSc1cccc(NC(=O)CN2C(=O)COc3ccc(Cl)cc32)c1	1.8%	7.8
CCOc1ccc(CCNC(=O)c2cc(C)nc3c2c(C)nn3-c2cccc(F)c2)cc1	4.8%	22.3
CCCS(=O)(=O)c1nc(S(=O)(=O)c2ccc(C)cc2)c(NCCCOC(C)C)s1	-0.9%	47.6
CC(C)Oc1cccc(C(=O)Nc2nnc([C@H]3C[C@H](O)[C@@H](CO)O3)s2)c1	-8.1%	-10.6
CCCN(CCC)S(=O)(=O)c1ccc(C(=O)Nc2cccc(-c3nc4ccccc4[nH]3)c2)cc1	u	16.9
CCCS(=O)(=O)c1c(S(=O)(=O)CCC)c2cc(CC)ccn2c1C(=O)c1ccc(Cl)cc1	-1.8%	0.9
COc1ccc(S(=O)(=O)NCC(c2ccco2)S(=O)(=O)c2cccs2)cc1F (stereo not drawn)	-0.9%	-19.4
Cc1cccc(-n2c(-c3ccco3)nc3c(cnn3-c3ccc(F)cc3)c2=O)c1	-9.5%	-5.3
Cc1ccc(-n2nc3c(N4CCC(C(=O)N(C)Cc5ccccc5)CC4)nnc(C)c3c2C)cc1	-1.7%	28.9
O=C1C[C@@H]2C(=O)N(c3ccccc3)C(=O)[C@@H]2[C@@H]2CN(S(=O)(=O)c3ccccc3)[C@@H](c3ccccc3)[C@H]12	1.8%	34.2
Cc1ccccc1Nc1c(-c2ccsc2)nc2c(C)cccn12	4.4%	11.2
CCOc1ccc(CC(=O)NCCc2csc(-c3ccc(C)cc3)n2)cc1	-5.0%	-11.6
CCc1ccccc1NC(=O)c1cc(S(=O)(=O)N2CCc3ccccc32)ccc1F	0.0%	6.6
CN(C)c1ccc(NC(=O)Nc2nc(C(N)C3CCCCC3)cs2)cc1 (stereo not drawn)	-0.6%	41.7
COc1ccc(C2C(=O)N(C3CCC(C)CC3)CC(=O)N2CCc2ccccc2)cc1OC (stereo not drawn)	-2.5%	4.8
COc1ccc(CCNC(=O)CCn2c(=O)c3ccccc3n(Cc3ccccc3)c2=O)cc1OC	-20.2%	-13.2
CCCN(c1ccc(C(C)C)cc1)S(=O)(=O)c1ccc2c(c1)oc(=O)n2CC(=O)OCC	0.3%	46.5
COc1cccc(-c2nc3c(C#N)c[nH]n3c2NC2CCCCC2)c1	-0.4%	10.5
COc1cccc(CN2CCc3nc(Nc4ccc5c(c4)OCCO5)ncc3C2)c1	-1.8%	-1.8
CC1CCN(S(=O)(=O)c2cc(C(=O)Nc3ccc(Br)cc3F)n(C)c2)CC1	12.3%	3.4
CCN(CC)S(=O)(=O)c1ccc2c(c1)N(CC(=O)NCCCN1CCN(c3cc(C)ccc3C)CC1)C(=O)CO2	0.5%	-15.2
Cc1ccc(-c2nnn3c2nc(NCCc2ccc(Cl)cc2)c2ccccc23)cc1	-2.8%	17.9
Cc1cccc(-n2ncc(C(=O)NCc3ccccn3)c2C2CCN(C(=O)OC(C)(C)C)CC2)c1	1.6%	-13.8

Single records (already shown). Values in the order: ClpP mod, TRPML1 inh
COc1ccc(CCNC(=O)CCn2c(=O)c3ccccc3n(Cc3ccccc3)c2=O)cc1OC in the list: -20.2%, -13.2
CC1CCN(S(=O)(=O)c2cc(C(=O)Nc3ccc(Br)cc3F)n(C)c2)CC1 in the list: 12.3%, 3.4
CCN(CC)S(=O)(=O)c1ccc2c(c1)N(CC(=O)NCCCN1CCN(c3cc(C)ccc3C)CC1)C(=O)CO2 in the list: 0.5%, -15.2

(list continues)
mol	ClpP mod	TRPML1 inh
COc1ccc(Cl)cc1NC(=O)N1CCC(CN2CCCCCC2)CC1	0.2%	8.0
COc1ccc(OC)c(-c2csc(-c3c(N)c(C(=O)c4ccc(Cl)cc4)n4ccccc34)n2)c1	-1.0%	-7.0
CCOc1cc(C(=O)Nc2cccc3cccnc23)cc(OCC)c1OCC	-11.3%	24.8
CC(C)NC(=O)C1=CC(c2ccc3c(c2)OCO3)=NS(=O)(=O)N1C	-3.2%	12.2
CC(C)c1ccc(NC(=O)c2ccc(=O)n(Cc3ccccc3)c2)cc1	-4.3%	-16.9
CCC(CC)c1nn2c(=O)cc(COc3ccc(NC(=O)c4cccc(Cl)c4)cc3)nc2s1	-5.9%	-18.2
CCCCN(CCCC)Cc1cc(=O)oc2cc(OC)c(Cl)cc12	u	13.9
Cn1c(SCC(=O)Nc2ccccc2)nnc1-c1ccccc1	-0.9%	7.6
COc1cc(CNC(=O)c2ccc3c(c2)c(C)c(C)n3Cc2cccc(C)c2)cc(OC)c1OC	u	1.5
